# A647 autofl: compound fluoresces in the A647 spectral region; Compound fluorescence, A647 channel (570/671 nm), Tris buffer; AID 592; max dye-equivalent concentration, M; 59,000 tested, under 10 active; active means above 1 µM dye equivalent; inconclusive means 0.1 to 1 µM; inactive means 0.1 µM or less;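 further: values scaled relative to a standard on each plate; highest value over a series up to 38 µM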
#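 Buffer was dispensed, compounds and Alexa 647 standards were pin-transferred, and plates sat 15 min at room temperature. Intensity at 570/671 nm was then converted to dye-equivalent concentration using the plate's A647 standard curve.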
# TSHR ag: agonists of human thyroid stimulating hormone receptor; Potency, µM (series often up to 57.1 µM), without a hit: at the top dose activation, most hits filed as activators; P16473; HEK293-CNG-TSHR cells (CNG channel as cAMP sensor), membrane potential dye, cAMP; actives 0.48% (n = 73,000); active = well fitted activation curve of enough size with the parental cells flat; inconclusive = any curve in the parental cells; inactive = parental cells flat and receptor cells flat or falling; further: potency means the concentration at half of the fitted maximal effect; % of control where 0% means no effect; weak receptor curves with flat parental cells got no call and are not listed
# Target sequence (P16473 whole entry, looked up): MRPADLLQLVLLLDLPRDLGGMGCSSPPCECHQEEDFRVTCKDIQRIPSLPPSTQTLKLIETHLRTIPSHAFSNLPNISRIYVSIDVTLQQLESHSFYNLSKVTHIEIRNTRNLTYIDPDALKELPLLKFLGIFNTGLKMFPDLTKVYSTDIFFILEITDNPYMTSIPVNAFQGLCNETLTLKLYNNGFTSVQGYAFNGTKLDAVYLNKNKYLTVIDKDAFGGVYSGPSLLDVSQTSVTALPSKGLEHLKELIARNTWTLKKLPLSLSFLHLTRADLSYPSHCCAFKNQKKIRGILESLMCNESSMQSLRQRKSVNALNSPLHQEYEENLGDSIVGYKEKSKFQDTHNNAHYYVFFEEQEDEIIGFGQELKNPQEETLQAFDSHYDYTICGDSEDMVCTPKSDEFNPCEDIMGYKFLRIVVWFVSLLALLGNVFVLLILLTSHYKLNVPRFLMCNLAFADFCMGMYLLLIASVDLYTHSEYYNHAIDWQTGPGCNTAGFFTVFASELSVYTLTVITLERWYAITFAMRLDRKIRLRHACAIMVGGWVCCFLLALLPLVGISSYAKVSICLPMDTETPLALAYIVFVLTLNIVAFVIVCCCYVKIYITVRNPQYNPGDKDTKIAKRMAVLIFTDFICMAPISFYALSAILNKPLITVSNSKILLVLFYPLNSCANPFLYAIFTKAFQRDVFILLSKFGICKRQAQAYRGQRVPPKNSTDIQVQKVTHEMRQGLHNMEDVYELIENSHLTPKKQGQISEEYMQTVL
#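 cAMP rise detected as CNG-channel membrane depolarization by fluorescent dye (emission 590 nm), 30 min after compound, following 60 min dye loading containing 100 uM RO 20-1724 at room temperature. Cells: TSHR/CNG HEK 293, with parental CNG HEK 293 as control.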
# AID923: qHTS Assay for Allosteric/Competitive Inhibitors of Caspase-1: Spectroscopic Profiling in AFC Spectral Region | compound fluorescence, AFC spectral region (405/520 nm); almost no hit is shown here | Potency, µM (series often up to 57.5 µM), without a hit: top-dose fluorescence increase, hits mostly activators | actives 1.1% (n = 75,000); active means well fitted activation curve with a large enough effect; inconclusive means small, poorly fitted or top-dose-only effect;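 further: potency means the concentration at half of the fitted maximal effect; 0% is about no effect; scaled to a free AFC standard on each plate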
#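 Baseline compound fluorescence (AFC region, 405 nm ex/520 nm em) taken from the intercept of kinetic reads with 50 nM caspase-1 and 5 uM Ac-WEHD-AFC; normalized to an on-plate AFC standard curve; compounds titrated up to 57 uM.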
# Resorufin fluor: compounds fluorescent in resorufin spectral region | Compound fluorescence, resorufin region 547/598 nm, buffer; hits give high values | max dye-equivalent concentration, M | actives 0.04% (n = 59,000) | AID 588; active = above 10 nM dye equivalent; inconclusive = 1 to 10 nM; inactive = 1 nM or less; a few of its hits are not listed in these tables; further: highest value over a series up to 38 µM
#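 Tris 100 mM pH 8.0; compound added, 15 min RT; CCD imager read, ex 547 nm/em 598 nm; signal normalized to resorufin standard curve (six concentrations per plate) as dye-equivalent concentration.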
# A488 fluor: compound autofluorescence in A488 spectral region; actives 0.1% (n = 59,000); max dye equivalency, M; compound autofluorescence, A488 spectral region, dye equivalency; hits give high values; AID 591; active = above 10 nM dye equivalent; inconclusive = 1 to 10 nM; inactive = 1 nM or less; about half of its hits are not listed in these tables;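 further: highest value over a series up to 38 µM; compound alone in buffer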
#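 Read-out: relative fluorescence at 480/540 nm, expressed as Alexa 488 dye-equivalent concentration from a six-point A488 standard included per plate. Conditions: 100 mM Tris, pH 8.0; 15 min incubation, room temperature.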
# * = called active by the depositor; i = inactive; ? = inconclusive; . = not tested or not shown; & = joins results of further samples; [ ] = remark or other dose.
smiles | A647 autofl | TSHR ag | AID923 | Resorufin fluor | A488 fluor
COC(=O)c1ccc2c(c1)NC1=C(C(=O)CC(C)(C)C1)C(c1ccncc1)N2 (centres undefined) | 1.54e-08 | 13.8% | 0.1% | i | i
O=C(NCCCn1ccnc1)c1cccc(S(=O)(=O)Nc2ccccc2F)c1 | 2.11e-08 | 5.9% | -0.1% | i | i
N#CCC(=O)Nc1ccccc1C(=O)O | 5.95e-08 | -0.3% | -1.9% | i | i
Cc1ccccc1NC(=O)CCn1c(=O)oc2ccccc21 | . | 9.7% | -0.5% | . | .
Cc1c(NC(=O)CC(=O)Nc2c(C)n(C)n(-c3ccccc3)c2=O)c(=O)n(-c2ccccc2)n1C | 6.3e-09 | -47.2%[inhibitor] | 0.0% | i | i
CCn1c(C(O)c2cccc(OC)c2OC)nc2ccccc21 (centres undefined) | 1.3e-09 | 2.6% | 0.4% | i | i
Cc1cccc(N2CCN(c3cc(C)nc4nnnn34)CC2C)c1 (centres undefined) | 2.85e-08 | -0.9% | 0.8% | i | i
Cc1ncc(COP(=O)(O)O)c(C)c1O | 7.7e-09 | 0.1%[11.4 µM] | -0.5%[11.5 µM] | i | i
Cc1ccc(-c2noc(CN(C(=O)c3cccs3)C(C)C)n2)cc1 | 4.2e-09 | ? | -1.2% | i | i
CCOC(=O)c1cnc(-n2nc(C)cc2C)nc1N1CC(C)OC(C)C1 (centres undefined) | 2.86e-08 | 0.8% | 0.8% | i | i
CCOC(=O)N1CCN(C(=O)c2ccc3c(=O)n(CCc4ccccc4)c(=O)[nH]c3c2)CC1 | 1e-09 | -2.2%[11.4 µM] | 0.0% | i | i
Clc1cc(Cl)c2nc(N3CCCCC3)sc2c1 | 4.03e-08 | 6.6%[11.4 µM] | -0.5% | i | i
Cc1cc(NC(=O)CCN2C(=O)C3C4C=CC(C4)C3C2=O)c2ccccc2n1 (centres undefined) | 3.1e-09 | 11.4% | 0.0% | i | i
COc1ccc(C(=O)N2CCC3(CC2)CCN(c2cccc(-c4ccccc4)c2)CC3)cc1 | 1e-09 | ? | 1.0% | i | i
COc1cccc(-c2nc(N(C)Cc3ccco3)c3ccccc3n2)c1 | 1e-09 | ? | 11.7% | i | i
Cc1cc(NC(=O)c2cc3n(n2)C(C(F)(F)F)CC(c2ccco2)N3)n(-c2ccccc2)n1 (centres undefined) | 2.8e-09 | -20.1% | 0.8% | i | i
CCn1c(SCC(=O)N2CCCc3ccccc32)nnc1-c1cccs1 | 2.15e-08 | 13.2% | -1.1% | i | i
Cc1ccc(N2CC(C(=O)Nc3cccnc3)CC2=O)cc1 (centres undefined) | 1.51e-08 | 0.0% | -0.2% | i | i
Cc1ccc(NC(=O)CN(c2cc(C)cc(C)c2)S(=O)(=O)c2c(C)noc2C)nc1 | . | ? | -3.3% | . | .
CCCCCn1c(CCNC(=O)CCC)nc2ccccc21 | . | 9.4% | 0.9% | . | .
c1ccc(-c2nc3ccccc3nc2N2CCOCC2)cc1 | 3.41e-08 | 9.2% | 12.0% | i | i
CN1C(=O)CC(C(=O)O)SC1=Nc1cccc(C(F)(F)F)c1 (centres undefined) | 4.25e-08 | 6.1% | 0.5% | i | i
Cc1ccc(S(=O)(=O)Oc2cc(N)c3c(n2)CCC3)cc1 | 1e-09 | 9.0%[11.4 µM] | -0.9%[11.5 µM] | i | i
CO[C@@H](NC(N)=O)C(=O)O | 1e-09 | . | -2.6%[11.5 µM] | i | i
O=C(Nc1ccc2c(c1)ncn2C1CCCCC1)c1ccco1 | 1e-09 | 10.9% | -1.6% | i | i
Cc1ccc(C(=O)CCC(=O)Nc2cccnc2)cc1C | 9.7e-09 | 15.0% | 0.0% | i | i
c1ccc2sc(N3CCN(Cc4ccc5c(c4)OCO5)CC3)nc2c1 | . | 21.5% | 7.2% | . | .
COc1cccc(CNC(=O)C2CCN(S(=O)(=O)N3CCCC3)CC2)c1 | 8.1e-09 | 15.8% | 0.9% | i | i
CCc1ccc(-c2nc(CN3CCC(C(=O)NCc4ccc(F)cc4)CC3)c(C)o2)cc1 | 3.89e-08 | 5.4% | -1.7% | i | i
Cc1ccc(NC(=O)CSC2=C(C#N)C(c3ccco3)C3=C(CC(C)(C)CC3=O)N2)cc1 (centres undefined) | 1e-09 | -2.4% | 0.3% | i | i

# Random excerpt: 3 compounds from above, in no set order.
smiles | A647 autofl | TSHR ag | AID923 | Resorufin fluor | A488 fluor
CCn1c(C(O)c2cccc(OC)c2OC)nc2ccccc21 (centres undefined) | 1.3e-09 | 2.6% | 0.4% | i | i
CCn1c(SCC(=O)N2CCCc3ccccc32)nnc1-c1cccs1 | 2.15e-08 | 13.2% | -1.1% | i | i
COc1ccc(C(=O)N2CCC3(CC2)CCN(c2cccc(-c4ccccc4)c2)CC3)cc1 | 1e-09 | ? | 1.0% | i | i

# More records follow:
smiles | A647 autofl | TSHR ag | AID923 | Resorufin fluor | A488 fluor
C[C@H](Oc1ccccc1)C(=O)N[C@@H]1C(=O)N2[C@@H]1SC(C)(C)[C@@H]2C(=O)O | 2.6e-09 | 1.4%[25.6 µM] | 1.8%[25.7 µM] | i | i
CCOc1cc(C(=O)N(C)c2ccccc2)cc(OCC)c1OCC | . | 25.1µM* | 0.9% | . | .
COC(=O)CNc1n[nH]c(=S)[nH]c1=O | 3.3e-09 | 0.5% | -1.0% | i | i
COc1ccc(Cn2nnnc2C(CC(C)C)N2CCN(c3ccccc3)CC2)cc1 (centres undefined) | 1e-09 | ? | -1.3% | i | i
Cc1nnc(NC(=O)C2C3C=CC(O3)C2C(=O)O)s1 (centres undefined) | 1.2e-09 | 7.2% | -0.4% | i | i
Cn1c(N)c(C(=O)COC(=O)c2cccs2)c(=O)n(C)c1=O | 1e-09 | 1.1% | 8.8% | i | i
Cc1nc(NC(=O)COC(=O)C(NC(=O)c2ccco2)C(C)C)c(Cl)cc1Cl (centres undefined) | 1e-09 | 1.3% | 3.1% | i | i
CCc1cc2c(=O)n(Cc3ccco3)c(SCC(=O)N3CCCc4ccccc43)nc2s1 | 1e-09 | ? | 0.4% | i | i
O=C(CCCN1C(=O)c2ccccc2C1=O)Nc1ccc(Br)cn1 | 8.3e-09 | 2.6%[11.4 µM] | 1.5% | i | i
Cc1ccc(C2/C(=C(/O)c3ccccc3)C(=O)C(=O)N2CCN2CCOCC2)o1 (centres undefined) | . | 5.4% | 4.6% | . | .
CCOC(=O)c1ccc(NC(=O)COc2ccc(-n3cnnn3)cc2)cc1 | 1e-09 | -2.1% | -1.1% | i | i
O/N=C(/Cc1ccccn1)c1ccccc1 | . | 1.8% | 4.4% | . | .
CCOC(=O)C(CC(C)C)CP(=O)(O)CNC(=O)OCc1ccccc1 (centres undefined) | 1e-09 | 18.9% | -0.4% | i | i
Fc1ccc(-n2[nH]nnc2=S)cc1N1CCCC1 | 1.99e-08 | -0.1% | -0.1% | i | i
CCOc1ccc(S(=O)(=O)Nc2cc(OC)ccc2OC)cc1 | 4.4e-09 | ? | -0.7% | i | i
O=C(O)[C@@H](O)[C@@H](O)[C@@H](O)[C@@H](O)c1nc2ccccc2s1 | 9.3e-09 | 0.3%[11.4 µM] | -0.9%[11.5 µM] | i | i
O=c1[nH]c(-c2ccc(Cl)cc2)nc2c1cnn2-c1ccccc1 | 8e-09 | ? | 1.4% | i | i
BrC1C(Br)C(Br)C(Br)C(Br)C1Br (centres undefined) | . | 10.3% | 2.5% | . | .
O=C(Cn1nc(C(F)(F)F)c2c1CCC2)NC1CCCCC1 | 1e-09 | ? | 1.2% | i | i
CN(C)C(=O)c1ccc(-c2ccc3ncnc(N4CCNCC4)c3c2)cc1 | 1.73e-08 | . | 1.8% | i | i
COC(=O)c1sc2nc(-c3ccco3)ccc2c1N | 6.1e-09 | 11.8% | -1.7% | i | i
CS(=O)(=O)N1CCC(C(=O)NCc2ccc(F)cc2Cl)CC1 | 6.4e-09 | -2.8% | -0.9% | i | i
CCOc1ccccc1CN1C(=O)NC(C)(c2ccccc2)C1=O (centres undefined) | 1.4e-09 | . | -0.4% | i | i
CSc1ccc(S(=O)(=O)N2CCN(Cc3ccc4c(c3)OCO4)CC2)cc1 | . | 9.7% | 1.1% | . | .
CC(=O)N1CCC2(CCCN(c3ccccc3)C2)CC1 | 5.2e-09 | 6.4% | 1.3% | i | i
O=C(Nc1ccc2c(c1)CCC2)C1CCN(c2ncccn2)CC1 | 3.35e-08 | 4.4% | 0.4% | i | i
COC(=O)NC(CC(C)=O)c1ccccc1 (centres undefined) | . | -2.3%[11.4 µM] | -2.2%[11.5 µM] | . | .
CC1CN2C(CCC(C)C2c2ccc(Br)cc2)C(=O)O1 (centres undefined) | . | 4.2%&12.9%&-2.3%[11.4 µM] | 1.9%&-1.2%&-2.7%[11.5 µM] | . | .
O=C(NCc1ccccn1)c1ccc(CS(=O)(=O)Cc2ccc(Cl)cc2)o1 | 7.9e-09 | 11.5% | -0.3% | i | i
COc1ccc(S(=O)(=O)Nc2ccc3c(c2)OCO3)cc1C(=O)O | . | ? | 1.9% | . | .
CCOC(=O)C1CCCN(C(=O)c2ccco2)C1 (centres undefined) | . | -4.8%[11.4 µM] | -1.3% | . | .
COc1ccc(-n2ncc3c(Nc4cccc(C)c4)ncnc32)cc1 | 1.4e-09 | . | . | i | i
Nc1nnc(SCc2cccnc2)s1 | 4.3e-09 | 0.6% | -0.7% | i | i
COc1ccc2c(c1)c1ccccc1n2C | 1e-09 | 3.7% | 0.9% | i | i
CCNC(=O)NC(=O)COC(=O)CCCSc1nc2ccccc2[nH]1 | 6.02e-08 | -6.9% | -4.2% | i | i
CCN(CC)CCNC(=O)CS(=O)Cc1nc(-c2ccc(Cl)cc2)oc1C (centres undefined) | 2.92e-08 | 10.3%[11.4 µM] | -0.9% | i | i
COc1ccccc1CNc1ccnc(-c2cccc(C#N)c2)n1 | 4.02e-08 | 21.8% | 3.2% | i | i
COc1ccc(CNc2nc(-c3ccc4c(c3)OCO4)nc3ccccc23)c(OC)c1 | 1e-09 | -3.0% | -3.5% | i | i
CCC1=[N+]([O-])C(C)(/C(C)=N\O)N(O)C1(C)C (centres undefined) | 1e-09 | -3.3% | -0.5% | i | i
N#C/C(=C\c1ccc(O)c(O)c1)C(=O)c1ccc(O)c(O)c1 | 1.1e-09 | 3.6% | -4.3% | i | i
CN(CCOc1ccc(Cl)cc1)c1ccc(S(=O)(=O)N2CCCCC2)cn1 | 7.4e-09 | ? | -0.4% | i | i
O=c1c(-c2ccccc2)nc2cncnc2n1Cc1ccccc1 | 2.63e-08 | -15.3% | 4.0% | i | i
Cc1ccc2nc(SCC(=O)Nc3cc(C)on3)[nH]c2c1 | 1.59e-08 | 0.6% | 0.5% | i | i
O=C(NCc1nc2ccccc2[nH]1)c1ccc(Cl)c(S(=O)(=O)N2CCCC2)c1 | 4.85e-08 | 0.5% | -1.6% | i | i
CCOC(=O)COc1ccc(-c2nnc(-c3ccccc3)o2)cc1 | 4.23e-08 | 6.7% | 1.8% | i | i
CCn1c(C)c(CCC(=O)O)c(=O)n2nc(-c3ccccc3OC)cc12 | 2.54e-08 | 5.5% | 0.9% | i | i
Cc1nc2cc(C(=O)O)ccc2n1-c1ccc(F)cc1F | 2.5e-08 | -0.4%[11.4 µM] | -0.5% | i | i
COc1ccccc1NC(=O)Nc1ccnn1Cc1cccs1 | 2.7e-09 | 1.5% | -1.2% | i | i
Cc1ccc(C2CC(c3ccccc3Cl)n3nc(N)nc3N2)cc1 (centres undefined) | . | 16.6% | 0.2% | . | .
Cc1oc(-c2ccc(Cl)cc2)nc1CN1CCC(C(=O)N2CCc3ccccc3C2)CC1 | . | 16.7% | -0.9% | . | .
CCn1cc(C(=O)N2CCN(Cc3ccc4c(c3)OCO4)CC2)c2cc(OC)c(OC)cc2c1=O | 1.3e-08 | 5.2% | -0.3% | i | i
CC(=O)Nc1ccc(NC(=O)CSc2nccn2Cc2ccccc2)cc1 | . | -1.4%[11.4 µM] | 2.0% | . | .
Cc1cccn2c(=O)c3cc(C(N)=S)c(=N)n(CCCOC(C)C)c3nc12 | 1e-09 | . | . | i | i

# Screens (PubChem)

# Not all compounds are listed, so the mix of outcomes need not match the whole.
